High-throughput results as filed in PubChem BioAssay.
Vaccinia stage = Vaccinia orthopox stage-specific inhibition. 89,000 tested, 0.01% active. Vaccinia-infected cells, mCherry/Venus stage reporter fluorescence; stronger effect = lower value; some inactives read as strong as hits. AID 1053133. activity change (mCherry), % (test concentration not listed);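 active means mCherry past -33% and 40 or more points under the early reporter, replicates agreeing; inconclusive means past -33% without that gap or agreement; tested in A549 cells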;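 further: scaled between vehicle wells and reference inhibitor wells; 23 nL library stock went into each well; one replicate is shown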
Vaccinia stage Venus = second read-out of Vaccinia stage, no call of its own (marks repeat the call); activity change (Venus), %; measured here: Venus reporter, other viral stage;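 negative = less Venus signal; first of two replicates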
An asterisk follows results filed as active; ? = inconclusive; nt = not tested or not shown. The list is partial (hit frequency here may not be typical).

Sample of the layout:
SMILES	Vaccinia stage	Vaccinia stage Venus
Cc1ccc(S(=O)(=O)N(C)C[C@H]2OCc3ccccc3-c3c(n(C)c4ccccc34)C(=O)N([C@H](C)CO)C[C@@H]2C)cc1	-30	-24
O=S(=O)(N[C@@H]1CC[C@@H](CCn2cc(C3CC3)nn2)O[C@@H]1CO)c1ccc(Cl)cc1	6	11
C[C@@H]1CN([C@H](C)CO)C(=O)c2cccc(N(C)C)c2O[C@H]1CN(C)C(=O)Nc1ccccc1	8	2
C[C@H](CO)N1C[C@H](C)[C@H](CN(C)Cc2ccc(C(=O)Nc3ccccc3N)cc2)Oc2c(NS(=O)(=O)c3ccc(Cl)cc3)cccc2C1=O	11	-7
C[C@H]1CN([C@@H](C)CO)C(=O)c2cc(NC(=O)CCN3CCOCC3)ccc2O[C@@H]1CN(C)Cc1ccc(C(=O)Nc2ccccc2N)cc1	13	11
CC=Cc1ccc2n(c1=O)C[C@H]1[C@H](CO)[C@@H](C(=O)N(C)C)N[C@@H]21 (mixture of isomers)	1	3
COc1ccc(C#Cc2ccc3c(c2)[C@]2(C(=O)N3)[C@H](c3ccccc3OCCO)N3[C@H](c4ccccc4)[C@H](c4ccccc4)OC(=O)[C@H]3[C@@H]2C(=O)N2CCN(c3ncccn3)CC2)cc1	-23	-18
COc1ccc(CN2C[C@H](O)COC[C@H]3O[C@@H](CC(=O)N4CCc5ccccc5C4)CC[C@@H]32)cc1	-34	-32
CCNC(=O)C[C@@H]1CC[C@@H]2[C@@H](COc3ccc(NC(=O)c4cscn4)cc3C(=O)N2C)O1	-2	11
CCS(=O)(=O)Nc1ccc2c(c1)C(=O)N(C)C[C@H](OC)[C@@H](C)CN(C(=O)COC)[C@H](C)CO2	-5	-8
CCCc1cn([C@H]2C[C@@H]3O[C@H](CO)CC[C@@H]3O[C@@H]2CCc2ccc(C#CCc3ccccc3)cc2)nn1	-13	-20

This part in full, repeating the preview:
SMILES	Vaccinia stage	Vaccinia stage Venus
Cc1ccc(S(=O)(=O)N(C)C[C@H]2OCc3ccccc3-c3c(n(C)c4ccccc34)C(=O)N([C@H](C)CO)C[C@@H]2C)cc1	-30	-24
O=S(=O)(N[C@@H]1CC[C@@H](CCn2cc(C3CC3)nn2)O[C@@H]1CO)c1ccc(Cl)cc1	6	11
C[C@@H]1CN([C@H](C)CO)C(=O)c2cccc(N(C)C)c2O[C@H]1CN(C)C(=O)Nc1ccccc1	8	2
C[C@H](CO)N1C[C@H](C)[C@H](CN(C)Cc2ccc(C(=O)Nc3ccccc3N)cc2)Oc2c(NS(=O)(=O)c3ccc(Cl)cc3)cccc2C1=O	11	-7
C[C@H]1CN([C@@H](C)CO)C(=O)c2cc(NC(=O)CCN3CCOCC3)ccc2O[C@@H]1CN(C)Cc1ccc(C(=O)Nc2ccccc2N)cc1	13	11
CC=Cc1ccc2n(c1=O)C[C@H]1[C@H](CO)[C@@H](C(=O)N(C)C)N[C@@H]21 (mixture of isomers)	1	3
COc1ccc(C#Cc2ccc3c(c2)[C@]2(C(=O)N3)[C@H](c3ccccc3OCCO)N3[C@H](c4ccccc4)[C@H](c4ccccc4)OC(=O)[C@H]3[C@@H]2C(=O)N2CCN(c3ncccn3)CC2)cc1	-23	-18
COc1ccc(CN2C[C@H](O)COC[C@H]3O[C@@H](CC(=O)N4CCc5ccccc5C4)CC[C@@H]32)cc1	-34	-32
CCNC(=O)C[C@@H]1CC[C@@H]2[C@@H](COc3ccc(NC(=O)c4cscn4)cc3C(=O)N2C)O1	-2	11
CCS(=O)(=O)Nc1ccc2c(c1)C(=O)N(C)C[C@H](OC)[C@@H](C)CN(C(=O)COC)[C@H](C)CO2	-5	-8
CCCc1cn([C@H]2C[C@@H]3O[C@H](CO)CC[C@@H]3O[C@@H]2CCc2ccc(C#CCc3ccccc3)cc2)nn1	-13	-20
CO[C@@H]1CN(C)C(=O)c2ccc(NC(=O)C3CCC3)cc2OC[C@H](C)N(Cc2ccccn2)C[C@@H]1C	4	7
CC=Cc1ccc2n(c1=O)C[C@@H]1[C@@H](CO)[C@H](C(=O)N3CCOCC3)[C@H]2N1CC1CCCC1 (mixture of isomers)	16	11
C[C@@H]1CN([C@H](C)CO)C(=O)c2cc(-c3ccccc3)cnc2O[C@@H]1CN(C)Cc1ccc(C(=O)O)cc1	8	6
C[C@@H]1CN([C@@H](C)CO)C(=O)c2cc(C#CC3CCCCC3)cnc2O[C@H]1CN(C)C(=O)C1CCCCC1	?	nt
C[C@H](CO)N1C[C@H](C)[C@@H](CN(C)S(=O)(=O)c2cccs2)Oc2ncc(/C=C/c3ccccc3)cc2C1=O	?	nt
COc1ccc(CNC(=O)C[C@H]2CC[C@H](NC(=O)Nc3ccc4c(c3)OCO4)[C@H](CO)O2)cc1	6	-1
O=C(Nc1cccc(Cl)c1)N1C[C@@H]2[C@H](c3ccccc31)[C@H](CO)N2C(=O)C1CCCC1	3	6
C[C@@H]1CCCCO[C@H](CN(C)Cc2ccc(C(=O)O)cc2)[C@H](C)CN([C@H](C)CO)C(=O)c2cc(NC(=O)C3CCCCC3)ccc2O1	26	13
CC(C)[C@H](C)NC(=O)N(C)C[C@H]1OCc2ccccc2-c2c(n(C)c3ccccc23)C(=O)N([C@@H](C)CO)C[C@H]1C	7	1
C[C@H]1CN([C@@H](C)CO)C(=O)c2cccc(NC(=O)c3ccncc3)c2O[C@@H]1CN(C)C(=O)Nc1cccc2ccccc12	21	24
CNC[C@H]1Oc2ccc(NC(=O)Cc3ccccc3)cc2CC(=O)N([C@@H](C)CO)C[C@H]1C	13	8
N#Cc1cccc(-c2ccc3c(c2)[C@H]2[C@H](CCN2C(=O)C2CCCCC2)[C@H](CO)N3)c1	-23	-6
O=C(C[C@H]1CC[C@@H]2[C@H](COC[C@@H](O)CN2S(=O)(=O)c2ccccc2)O1)NCC1CCCCC1	-3	-2
CN1c2ccc(-c3ccc(C#N)cc3)cc2[C@@H]2[C@@H](CCN2C(=O)c2cccc(F)c2)[C@H]1CO	-6	0
SMILES	Vaccinia stage	Vaccinia stage Venus
O=C(C[C@H]1C=C[C@@H](NC(=O)c2cccnc2)[C@@H](CO)O1)NCc1ccc(Cl)c(Cl)c1	13	7
C[C@@H]1CCCCO[C@@H](CN(C)Cc2ccc(C(=O)O)cc2)[C@H](C)CN([C@@H](C)CO)C(=O)c2cc(NS(C)(=O)=O)ccc2O1	12	0
C[C@H](CO)N1C[C@H](C)[C@@H](CN(C)Cc2ccccc2C(=O)O)Oc2cc(-c3ccccc3)ccc2S1(=O)=O	-6	-1
C[C@@H]1CN([C@H](C)CO)C(=O)Cc2cc(NC(=O)Cc3cn(C)c4ccccc34)ccc2O[C@H]1CN(C)CC1CC1	-6	-14
C[C@H](CO)N1C[C@H](C)[C@H](CN(C)C(=O)Nc2ccccc2)Oc2c(NC(=O)c3nc4ccccc4s3)cccc2C1=O	-17	-13
Cc1ccc(S(=O)(=O)N2C[C@H](O)COC[C@@H]3O[C@H](CC(=O)NCc4ccc5c(c4)OCO5)CC[C@H]32)cc1	7	-2
CC=Cc1ccc2n(c1=O)C[C@H]1[C@H](CO)[C@@H](C(=O)NC3CCCC3)N(CCC)[C@@H]21 (mixture of isomers)	2	-1
C[C@@H]1CN([C@H](C)CO)C(=O)Cc2cc(NC(=O)Nc3ccc(F)cc3)ccc2O[C@H]1CN(C)C	15	3
CCC(=O)Nc1ccc2c(c1)C(=O)N(C)C[C@@H](OC)[C@@H](C)CN(Cc1ccccc1C(=O)O)[C@H](C)CO2	9	5
Cc1ccc(S(=O)(=O)Nc2ccc3c(c2)C(=O)N([C@@H](C)CO)C[C@@H](C)[C@@H](CN(C)C(=O)Nc2ccc(F)cc2)O3)cc1	7	3
NCCCCCNC(=O)[C@@H]1C[C@@H]2C(=O)N[C@@H](Cc3ccccc3)C(=O)N2[C@@H]1c1cccc(OCCO)c1	4	8
CCC(=O)N(C)C[C@@H]1Oc2cc(C#CCC(C)C)ccc2S(=O)(=O)N([C@@H](C)CO)C[C@@H]1C	-5	-12
CC(=O)N[C@@H]1C[C@@H]2O[C@@H](CO)CC[C@@H]2O[C@@H]1CCc1ccc(-c2ccc(F)cc2)cc1	-13	-11
C[C@@H]1CN([C@H](C)CO)S(=O)(=O)c2ccc(-c3cncnc3)cc2O[C@@H]1CN(C)C(=O)C1CCCCC1	8	1
CCCN1[C@H](C(=O)OC)[C@@H](CO)[C@@H]2Cn3c(ccc(C4=CCCCC4)c3=O)[C@@H]21	17	18
COCC(=O)N[C@@H]1CC[C@@H](CC(=O)N2CCCCC2)O[C@@H]1CO	12	9
O=C(Nc1ccc(F)cc1)N1C[C@H]2[C@@H](c3ccccc31)[C@@H](CO)N2C(=O)c1ccccn1	5	1
C[C@@H]1CN([C@@H](C)CO)C(=O)c2cccc(NC(=O)Nc3ccccc3)c2O[C@@H]1CN(C)S(=O)(=O)c1ccc(F)cc1	-34	-30
C[C@@H]1CN([C@H](C)CO)C(=O)c2cccc(NC(=O)c3ccc(-c4nccs4)cc3)c2O[C@H]1CN(C)C(=O)Nc1ccc(C(F)(F)F)cc1	-21	-18
C[C@@H]1CCCCO[C@@H](CN(C)C(=O)CCC(F)(F)F)[C@@H](C)CN([C@@H](C)CO)C(=O)c2cc(NS(=O)(=O)c3ccc(F)cc3)ccc2O1	?	nt
Cc1noc(C)c1NC(=O)Nc1ccc2c(c1)C(=O)N([C@H](C)CO)C[C@@H](C)[C@@H](CN(C)Cc1ccncc1)OCCCC[C@H](C)O2	6	5
COCC(=O)N1C[C@H](C)[C@@H](OC)CN(C)C(=O)c2ccc(NC(=O)c3cc(C)on3)cc2OC[C@@H]1C	-8	-1
CC(C)C(=O)Nc1ccc2c(c1)C(=O)N(C)[C@@H]1CC[C@@H](CC(=O)NCC3CC3)O[C@@H]1CO2	7	2
C[C@H](CO)N1C[C@H](C)[C@@H](CN(C)S(=O)(=O)c2cccs2)OCCCC[C@H](C)Oc2ccc(NC(=O)Nc3ccccc3)cc2C1=O	-3	-2
Cc1ccc(S(=O)(=O)Nc2cccc3c2O[C@H](CN(C)C)[C@H](C)CN([C@H](C)CO)C3=O)cc1	-2	2
SMILES	Vaccinia stage	Vaccinia stage Venus
C[C@H]1CN([C@@H](C)CO)S(=O)(=O)c2ccc(C#Cc3ccncc3)cc2O[C@@H]1CN(C)C	-10	-17
CNC[C@@H]1Oc2cc(C#Cc3ccc(F)cc3)ccc2S(=O)(=O)N([C@H](C)CO)C[C@H]1C	?	nt
O=C(NC1CCCCC1)N[C@@H]1CC[C@H](CCNS(=O)(=O)c2ccc(Cl)cc2)O[C@H]1CO	1	3
O=S(=O)(c1ccccc1)N1C[C@H]2[C@@H](c3ccccc31)[C@H](CO)N2Cc1ccc(F)cc1	-4	-7
O=C(C[C@H]1C[C@@H]2c3cc(NC(=O)C4CCC4)ccc3O[C@@H]2[C@@H](CO)O1)NC1CCCCC1	6	1
C[C@@H]1CN([C@H](C)CO)C(=O)c2cc(NS(=O)(=O)c3ccc(Cl)cc3)ccc2O[C@@H](C)CCCCO[C@H]1CN(C)C(=O)C1CCCCC1	?	nt
CC(C)NC(=O)N(C)C[C@H]1Oc2c(NC(=O)Nc3ccccc3)cccc2C(=O)N([C@H](C)CO)C[C@H]1C	4	5
C[C@@H]1CN([C@H](C)CO)C(=O)c2cc(C#Cc3ccccc3)cnc2O[C@H]1CN(C)C(=O)C1CC1	-5	-1
Cc1noc(C)c1S(=O)(=O)Nc1ccc2c(c1)C(=O)N([C@@H](C)CO)C[C@@H](C)[C@@H](CN(C)C(=O)Nc1ccc3c(c1)OCO3)O2	1	1
O=C(C[C@H]1C[C@@H]2c3cc(NC(=O)Cc4ccncc4)ccc3O[C@@H]2[C@@H](CO)O1)NCc1ccc2c(c1)OCO2	2	1
CNC[C@H]1Oc2cc(C#CCC(C)C)ccc2S(=O)(=O)N([C@@H](C)CO)C[C@@H]1C	-31	-23
C[C@@H]1CCCCO[C@H](CN(C)Cc2ccncc2)[C@@H](C)CN([C@H](C)CO)C(=O)c2cc(N(C)C)ccc2O1	21	7
C[C@H]1CN([C@@H](C)CO)C(=O)c2cccc(NC(=O)c3ccncc3)c2O[C@@H]1CN(C)C(=O)Nc1ccccc1	15	10
O=C(Cc1ccccn1)N[C@@H]1CC[C@@H](CCn2cc(-c3ccc(F)cc3)nn2)O[C@@H]1CO	7	6
C[C@@H]1CN([C@H](C)CO)C(=O)Cc2cc(N(C)C)ccc2O[C@@H]1CN(C)S(=O)(=O)c1cccs1	3	3
COc1cccc(CN2CCCCN3[C@H](CO)[C@H](c4ccc(-c5cccc(C#N)c5)cc4)[C@@H]3C2)c1	-3	1
CN(C)C(=O)c1ccc(-c2ccc([C@@H]3[C@@H](CO)N(C(=O)C4CCCC4)[C@H]3C#N)cc2)cc1	-11	-6
CC(C)CC#Cc1cnc2c(c1)C(=O)N([C@H](C)CO)C[C@@H](C)[C@H](CN(C)C(=O)c1ccc3c(c1)OCO3)O2	-11	-2
CO[C@@H]1CN(C)C(=O)c2cc(NS(=O)(=O)c3ccccc3)ccc2OC[C@H](C)N(C)C[C@@H]1C	17	11
COCC(=O)N1C[C@H](C)[C@H](OC)CN(C)C(=O)c2cc(NC(=O)C3CCC3)ccc2OC[C@H]1C	5	8
COc1ccc2c3c([nH]c2c1)[C@H](CO)N(C(=O)c1ccncc1)CC31CCN(C(=O)C2CCC2)CC1	12	-4
C[C@@H]1CCCCO[C@@H](CN(C)Cc2ccc(Cl)c(Cl)c2)[C@H](C)CN([C@H](C)CO)C(=O)c2cc(NC(=O)NC3CCCCC3)ccc2O1	-13	-6
CCCN1C[C@H](C)[C@@H](OC)CN(C)C(=O)c2ccc(NC(=O)c3ccccc3)cc2OC[C@H]1C	1	5
CO[C@H]1CN(C)C(=O)c2ccc(NC(=O)Nc3ccccc3)cc2OC[C@H](C)N(C(=O)CN(C)C)C[C@@H]1C	22	14
